Beta cell apopt: blocks beta cell apoptosis. INS-1E cytokine-induced death, ATP luminescence, 48 h; percent of positive-control rescue, neutral wells zero. protection from apoptosis, % (test concentration not listed). 0.8% of 300,000 active. AID 435005;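 active = all replicates at 75% or more, or half of them and the mean; inconclusive = half reach 75% but not the mean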;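 note: 0% = cytokine-treated negative control wells and 100% = positive control rescue; higher means more ATP so stronger rescue from cytokine killing; wells of about 40 µL received 100 nL stock; the first replicate is given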
FGF22 binding: binders of recombinant human FGF22 by thermal shift | Q9HCT0 | SYPRO orange fluorescence; percent of sucrose octasulfate shift, DMSO zero | calls only at 9.99 µM | 1.5% of 340,000 active | AID 651658;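 active = melting point raised past a set limit in the mean and every replicate; inconclusive = no clear call; three in four hits are not shown here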
Target sequence (Q9HCT0 whole entry, looked up): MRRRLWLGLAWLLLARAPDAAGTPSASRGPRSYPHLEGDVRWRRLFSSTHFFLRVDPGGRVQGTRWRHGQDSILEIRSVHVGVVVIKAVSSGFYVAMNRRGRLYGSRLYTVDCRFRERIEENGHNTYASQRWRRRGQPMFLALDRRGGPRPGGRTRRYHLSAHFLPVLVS
RanGTP-Impb inh: inhibitors of RanGTP-importin-beta interaction, primary screen, biochemical, FRET, CFP-Ran, YFP-importin-beta, homogeneous; cell-free CFP-Ran/YFP-importin-beta FRET ratio; inhibition, % (test concentration not listed); 1.1% of 300,000 active; AID 2216;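 active = most replicates above 15%; inconclusive = exactly half above 15%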;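 note: 0% = DMSO wells and 100% = Ran loaded with GDP instead of GTP; wells of about 40 µL received 100 nL stock; the first replicate is given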
Calb FLC: C. albicans growth modulation with fluconazole. AID 1979. 0.57% of 300,000 active. C. albicans CaCi-2 (fluconazole-resistant clinical isolate) + fluconazole, Alamar Blue growth, 48 h. growth inhibition, % (test concentration not listed);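 active = most replicates above 75%; inconclusive = exactly half above 75%; inactive = most below 75%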;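 note: all wells also contain fluconazole at 8 µg/ml as a sub-toxic cotreatment; 0% = median of DMSO wells and 100% = median of geldanamycin control wells; wells of about 8 µL received 7.5 nL stock; the first replicate is given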
MLL AF4-AF9 inh: blocks AF4 peptide binding to human AF9. inhibition, % at 10 µM. AID 651704. 0.47% of 350,000 active. P42568. AlphaScreen, biotin-AF4 peptide binding to FLAG-AF9;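 active = every replicate reaching a set inhibition limit, whatever the replicate mean, cut at about 25% in these data; inconclusive = mean inhibition reaches that limit but some replicates miss it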;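 note: 0% = plate neutral control median and 100% = total signal loss; the record names both 10 and 1 µM as test concentration; the first replicate is given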
Target sequence (P42568 whole entry, looked up): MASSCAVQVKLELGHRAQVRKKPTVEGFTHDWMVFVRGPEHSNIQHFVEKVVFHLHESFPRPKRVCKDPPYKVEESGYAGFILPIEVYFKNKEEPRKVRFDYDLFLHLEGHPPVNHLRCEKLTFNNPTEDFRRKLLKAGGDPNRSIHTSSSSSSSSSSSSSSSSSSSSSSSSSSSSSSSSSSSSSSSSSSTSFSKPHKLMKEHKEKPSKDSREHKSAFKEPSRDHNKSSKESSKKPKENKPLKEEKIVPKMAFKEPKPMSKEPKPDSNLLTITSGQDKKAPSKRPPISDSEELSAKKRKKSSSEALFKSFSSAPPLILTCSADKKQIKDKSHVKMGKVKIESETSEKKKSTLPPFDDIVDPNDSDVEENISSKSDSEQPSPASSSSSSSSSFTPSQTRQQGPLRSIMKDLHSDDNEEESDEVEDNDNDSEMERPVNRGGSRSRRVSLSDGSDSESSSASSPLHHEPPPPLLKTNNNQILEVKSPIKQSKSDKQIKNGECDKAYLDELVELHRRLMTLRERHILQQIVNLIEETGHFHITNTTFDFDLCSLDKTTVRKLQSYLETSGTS
T cruzi repl: blocks replication of Trypanosoma cruzi | T. cruzi beta-gal in NIH3T3, luminescence, 90 h | inhibition, % (test concentration not listed) | 1.4% of 300,000 active;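 active = mean inhibition across valid replicates above about 55%, limit read from the data; inconclusive = mean below that limit but half or more replicates reach it; inactive = mean below it, under half of replicates reach it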;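 note: signal also drops with host cell toxicity which is not excluded here; 0% = plate median of DMSO wells and 100% = zero luminescence signal; higher percent means less beta-gal luminescence so fewer parasites; stock transfer was 50 nL into about 50 µL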
rRNA inh HTS: inhibitors of bacterial rRNA selective over humanized ribosomes. 1.6% of 350,000 active. GFP signal change (wild-type ribosome), % (concentration not given with the values). AID 720706. E. coli WT GFP vs humanized-ribosome RFP mutants, fluorescence, 24 h; stronger effect = lower value; DMSO median 0, no signal -100;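 active = significant combined selectivity score with lowered wild-type GFP, culture density cut under 30%, mutant RFP and density less affected; inactive = any of these conditions unmet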; note: one replicate is shown; some compounds called inactive have numbers as strong as hits
ALR inh: inhibitors of human sulfhydryl oxidase ALR; inhibition, % (no concentration beside the values); 3.8% of 290,000 active; P55789; purified ALR, DTT oxidation, H2O2 HRP-luminol luminescence;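 active = mean and each replicate at 75% or more; inconclusive = only one of the two met; inactive = neither met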;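 note: stock transfer was 7.5 nL into about 7.5 µL; 0% = neutral wells and 100% = wells with inactivated enzyme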
Target sequence (P55789 whole entry, looked up): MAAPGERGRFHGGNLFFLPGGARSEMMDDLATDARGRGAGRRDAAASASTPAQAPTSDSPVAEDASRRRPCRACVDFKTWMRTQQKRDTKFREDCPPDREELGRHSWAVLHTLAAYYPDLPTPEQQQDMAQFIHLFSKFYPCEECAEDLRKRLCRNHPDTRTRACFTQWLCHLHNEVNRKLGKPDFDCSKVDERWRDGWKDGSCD
rRNA inh HTS OD600: recorded beside rRNA inh HTS, whose call it bears; OD600 change, %; measured here: OD600 growth;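 optical density of the mix in the first replicate; 0 = DMSO median and -100 = no signal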
rRNA inh HTS RFP: second read-out of rRNA inh HTS, no call of its own (marks repeat the call); RFP signal change, %; measured here: RFP humanized mutant strains;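 first replicate; 0 = DMSO median and -100 = no signal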
* hit, by the source's call; i = inactive; ? = inconclusive; nt = not tested or not shown; & = joins results of further samples. Only part of the results is shown, so the mix of outcomes need not match the whole.

SMILES	Beta cell apopt	FGF22 binding	RanGTP-Impb inh	Calb FLC	MLL AF4-AF9 inh	T cruzi repl	rRNA inh HTS	rRNA inh HTS OD600	rRNA inh HTS RFP	ALR inh
CC1CC(=O)c2cnc(Nc3ccccc3)nc2C1 (centres undefined)	nt	i	-2.4	1	0.6	-3	10	24	-7.3	nt
O=C(Cc1sc(-c2ccccc2)nc1-c1ccccc1)Nc1ccccc1	8	nt	3.2	-2	nt	2	nt	nt	nt	0
COc1ccc(Br)cc1CN(C)C(=O)c1cnc(C)cn1	-3	i	-0.8	10	0.1	-3	6	8	2.7	-1
COc1ccc(-c2ccc3nnc(SCC(=O)N4CCCC4)n3n2)cc1	0	i	6.0	3	-0.5	3	0	6	-0.4	-7
COc1ccc(NC(=O)c2cc(S(=O)(=O)N3CCCC3)ccc2C)cn1	-3	i	nt	nt	4.4	nt	7	12	-0.9	-9
COc1ccc(S(=O)(=O)Nc2cccc3c2O[C@H](CN(C)C(=O)Nc2c(C)noc2C)[C@@H](C)CN([C@H](C)CO)C3=O)cc1	-4	i	nt	nt	-1.1&2.1	nt	7&6	7&10	0.8&-7.0	-6
CCOC(=O)C1=NN(c2ccccc2)C2(S1)SC(C(C)=O)=C(C)N2c1ccccc1 (centres undefined)	-4	nt	1.3	?	nt	-19	nt	nt	nt	-6
NC(=O)c1ccc(Cl)c2ccccc12	-8	i	-1.7	0	-1.6	2	0	8	-1.2	nt
Cc1cccnc1NC(=O)CNC(=O)COc1ccccc1	-11	nt	-3.0	-13	-0.2	-8	9	2	-0.4	4
Cc1ccc(-c2c(C(=O)N/N=C/c3cccc(Cl)c3)nnn2-c2nonc2N)cc1	3	i	2.3	-7	-0.9	6	14	13	-2.5	-5
Cc1ccc(C)c(-c2cc(C(=O)Nc3cccc(C(=O)O)c3)c3ccccc3n2)c1	-7	i	-0.8	-5	-15	-8	3	1	0.9	9
CC(C)(O)CC[C@@H](O)[C@](C)(O)C1CC[C@@]2(O)C3=CC(=O)[C@]4(O)C[C@@H](O)[C@@H](O)C[C@]4(C)C3CC[C@]12C (some centres undefined)	-2	i	nt	nt	1.1	nt	2	10	-2.7	-5
CC(=O)Nc1ccc(-n2cc(-c3ccccc3)[nH]c2=S)cc1	3	i	2.6	7	0.4	-6	8	-2	-0.6	99*
Cc1nn(-c2c(Cl)cc(Cl)cc2Cl)c(=O)c2ccccc12	-2	nt	10	-1	nt	6	nt	nt	nt	2
CC1Oc2ccccc2N(CC(=O)NCCN2CCOCC2)C1=O (centres undefined)	0	nt	-1.7	-5	nt	19	nt	nt	nt	0
N#C/C(=C/c1ccc(F)cc1)c1nnc(NC(=O)c2ccccc2)s1	2	i	-5.1	0	0.3	1	7	1	-6.6	-1
COC(=O)[C@]1(Cc2ccccc2)N[C@H](CN(C)S(=O)(=O)c2ccc(OC(F)(F)F)cc2)[C@@H]2C(=O)N(Cc3ccccc3)C(=O)[C@@H]21	11	i	nt	nt	-0.1	nt	21	23	1.8	nt
O=C(/C=C/c1ccccc1Cl)N(Cc1cccs1)C1CCS(=O)(=O)C1 (centres undefined)	-2	i	6.7	10	nt	12	-35*	-4.8*	-8.2*	-7
CSc1ccccc1C(=O)OCC(=O)Nc1cccnc1Cl	2	i	nt	nt	-2.1	nt	0	5	13	4
CCCNC(=O)CC(NS(=O)(=O)c1ccc(OC)cc1)c1ccco1 (centres undefined)	-2	i	3.5	0	-3.2	-5	12	16	2.1	0

Whole records, quoted from the list. Order of screens: Beta cell apopt	FGF22 binding	RanGTP-Impb inh	Calb FLC	MLL AF4-AF9 inh	T cruzi repl	rRNA inh HTS	rRNA inh HTS OD600	rRNA inh HTS RFP	ALR inh
`Cc1ccc(C)c(-c2cc(C(=O)Nc3cccc(C(=O)O)c3)c3ccccc3n2)c1` as listed: -7	i	-0.8	-5	-15	-8	3	1	0.9	9
`CC1CC(=O)c2cnc(Nc3ccccc3)nc2C1` (centres undefined) as listed: nt	i	-2.4	1	0.6	-3	10	24	-7.3	nt
`N#C/C(=C/c1ccc(F)cc1)c1nnc(NC(=O)c2ccccc2)s1` as listed: 2	i	-5.1	0	0.3	1	7	1	-6.6	-1

Following part.
SMILES	Beta cell apopt	FGF22 binding	RanGTP-Impb inh	Calb FLC	MLL AF4-AF9 inh	T cruzi repl	rRNA inh HTS	rRNA inh HTS OD600	rRNA inh HTS RFP	ALR inh
O=C(NCC(O)c1ccc([N+](=O)[O-])cc1)Nc1ccccc1 (centres undefined)	-2	i	4.8	0	-22	-8	11	9	0.0	nt
CCOc1cc(CN2CCN(S(=O)(=O)Cc3ccccc3)CC2)ccc1OC	-8	i	0.2	2	0.2	17	-3	5	-1.2	-2
Nc1ccc(-c2ncc(-c3ccccc3)o2)cc1	nt	i	3.1	-1	3.6	-2	3	2	-1.1	64
Cc1onc(-c2ccccc2)c1CNC(=O)Nc1ccccc1	3	i	-1.3	12	-2.5	-2	nt	nt	nt	-3
C=CCO/N=C(/CCC)C1=C(N)CC(C)(C)CC1=O	-5	i	nt	9	2.3	-11	10	10	-5.0	-4
CCN(CC)S(=O)(=O)c1ccc2c(c1)C(=NO)c1cc(S(=O)(=O)N(CC)CC)ccc1-2	22	nt	1.2	-1	nt	63*	nt	nt	nt	-12
Cc1nc(N)[nH]c(=O)c1Oc1cccc(C(F)(F)F)c1	1	i	2.6	-5	-2.6	4	-3	-5	-2.6	-15
O=C(NC1(Cc2ccccc2)CCN(CCc2cccs2)C1=O)c1ccccc1 (centres undefined)	6	i	nt	nt	0.1	nt	-1	0	-6.6	-5
CC(=O)Nc1ccc(-c2cn3c(n2)SCC3)cc1	nt	i	8.9	24	-8.9	-3	11	10	0.6	nt
COc1ccc(C2C(C(=O)NCCCN3CCOCC3)c3ccccc3C(=O)N2c2ccc(OC)cc2)cc1 (centres undefined)	0	i	-0.1	4	-9.6	-17	2	-1	1.5	nt
COc1ccc(-n2nc(C(=O)N3CCN(Cc4ccc5c(c4)OCO5)CC3)c3ccccc3c2=O)cc1	-6	nt	-0.6	5	nt	37	nt	nt	nt	nt
Cc1ccc(NS(=O)(=O)c2cc(C(=O)N3CCN(C)CC3)ccc2C)cc1C	-2	nt	-2.3	-2	-0.3	-6	5	5	1.4	6
O=C(COc1ccc2ccccc2c1)N1CCN(C(=O)c2cccs2)CC1	-3	nt	0.2	11	nt	4	nt	nt	nt	-17
Cc1nn(-c2ccccc2)c(Cl)c1/C=N\NC(=O)c1cnccn1	-2	nt	2.8	2	nt	0	nt	nt	nt	-2
CCN(CC(=O)NC(C)(C)C)C(=O)COc1c(Cl)cc(Cl)c2ccc(C)nc12	11	i	-2.8	2	-2.8	41	-16	-11	15	nt
S=C(NCCc1c[nH]c2ccccc12)NC1CCCCC1	nt	i	5.8	-50	10	0	-17	-24	-4.0	?
O=C(NNc1ncnc2c1cnn2-c1ccccc1)c1ccco1	-6	i	-0.6	-8	0.9	-3	1	7	4.0	-5
COc1ccc(S(=O)(=O)N2CCC(NC(=O)c3ccccc3)CC2)cc1	-2	i	-1.6	9	-8.1	-9	14	10	0.0	-7
Cc1cccc(C)c1-n1c(SCC(=O)N2CC(=O)Nc3ccccc32)nc2ccccc2c1=O	0	nt	6.1	-1	nt	12	nt	nt	nt	-8
COc1ccccc1CCC(=O)N1CCN(S(=O)(=O)c2cc(C(F)(F)F)ccc2Cl)CC1	-1	i	nt	nt	-2.5	nt	-30	-43	-7.5	-3
CC(C)c1ccccc1NC(=O)CCCC(=O)O	-3	nt	3.6	14	nt	-10	nt	nt	nt	-8
COc1ccc(CN2C3CCCC2CC(NC(=O)Nc2ccccc2)C3)cc1 (centres undefined)	-8	nt	-1.1	-5	nt	30	nt	nt	nt	nt
N=C1S/C(=C\c2ccc(-c3cccc(Cl)c3)o2)C(=O)N1c1nccs1	72	i	-13	-8	3.0	16	7	-6	2.9	-1
OCC[C@@H]1C[C@@H](O)[C@H](O)[C@@]2(Cc3ccccc3O2)O1	-4	i	0.0	-2	-4.9	2	10	2	2.7	3
CCOC(=O)COc1c(Cl)cc(/C=C2\N=C(C)OC2=O)cc1OC	-1	i	?	6	-3.3	-2	7	0	-0.4	-12
CCCc1cc(=O)oc2c(C)c(OCC(=O)Nc3ccccn3)ccc12	-12	i	?	-1	-1.1	24	0	10	-1.1	-5
COc1ccc(NS(=O)(=O)c2cccs2)cc1S(=O)(=O)N1CCOCC1	-1	i	-3.4	2	0.5	-3	4	6	0.0	32
Cc1cc(C)cc(OCc2nnc(SCC(=O)OC(C)C)o2)c1	-3	nt	-4.4	-9	nt	-2	nt	nt	nt	-9
COC(CN(C)S(=O)(=O)c1cc2c3c(c1)CCN3C(=O)CC2)OC	-1	i	0.3	-3	-2.0	-11	2	9	-1.1	-8
CC(C)[C@H](NC(=O)C1CC(=O)N(c2ccc3c(c2)OCCO3)C1)C(=O)NC1CCCC1 (some centres undefined)	-2	i	-3.4	36	0.3	-7	6	12	-2.9	3
CN(Cc1cccs1)C(=O)CCc1c[nH]c2ccccc12	-5	i	1.0	-6	7.6	-19	-9	-5	1.4	nt
COCCCNC(=O)c1ccc(Cn2c(=O)c3ccccc3n(Cc3ccccc3C#N)c2=O)cc1	0	nt	3.0	-28	nt	7	nt	nt	nt	-1
CCC(=O)N(Cc1ccc(S(N)(=O)=O)cc1)C1CC(=O)N(c2ccc(OC)cc2)C1=O (centres undefined)	-10	nt	1.9	-1	nt	-19	nt	nt	nt	7
Cc1c(C)n(CCN(C)C)c2ccc(C(=O)OCCN(C)C)cc12	10	i	1.2	4	12	33	22	16	1.6	-2
CC(C)c1ccc(C2C3=C(CC(C)(C)CC3=O)NC3=C2C(=O)c2ccccc23)cc1 (centres undefined)	13	i	5.3	14	15	58*	-3	12	-1.9	-5
O=C(Nc1ccccc1N1CCN(C(=O)c2ccc(Cl)cc2)CC1)c1cc2ccccc2o1	12	nt	4.0	15	nt	31	nt	nt	nt	-4
C=CCC[C@@H](Cc1ccc(F)cc1)C(=O)OC[C@@H](NC(=O)[C@@H](CC=C)CC(=O)N[C@H](CO)Cc1ccccc1)C(C)(C)C	3	i	nt	nt	0.0	nt	-2	-11	-9.4	-1
COc1ccc(Nc2cc(C(=O)NCc3cccnc3)c3ccccc3n2)c(OC)c1	9	nt	1.8	?	nt	-8	nt	nt	nt	71
COc1cccc2[nH]c3c(=O)n(CCCN4CCOCC4)cnc3c12	-6	i	5.4	-7	1.4	-3	9	2	-1.5	-5
Cc1cccc(-c2nsc(SCC(=O)NCc3ccco3)n2)c1	5	nt	-3.2	-28	nt	0	nt	nt	nt	19
Cc1ccc(Cc2cc(C)n[nH]c2=O)cc1	5	i	1.7	-10	-2.5	-15	14	10	3.7	3
